WRN inhibitor = qHTS for Inhibitors of WRN Helicase; AID 651768, 2012; WRN helicase unwinding, fluorescent forked duplex, kinetic; Potency, µM (doses to about 114 µM), inactives show top-dose activity change, negative = inhibition, hits mostly inhibitors; Bifunctional 3'-5' exonuclease/ATP-dependent helicase WRN (Homo sapiens), Q14191; 360,000 tested, 0.46% active; further: potency means the concentration at half of the fitted maximal effect; on the % scale 0 is the no-effect control and ±100 the full control effect; nearly all actives have a fitted effect of over 55% in size
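Primary qHTS, 1536-well format. 20 nM WRN + compound, 15 min RT; start with 100 nM forked fluorophore/quencher duplex, 2 mM ATP (final); kinetic read ex 525/em 598 nm.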
DRD3 agonist = qHTS of D3 Dopamine Receptor Agonist: qHTS; D(3) dopamine receptor (Homo sapiens), P35462; D3R DiscoveRx beta-arrestin cells, luminescence, 90 min; max activation, %; 410,000 tested, 0.58% active; AID 652048, 2013; in the data active means max activation above about 30%; further: 0% is about no effect; mostly tested at two doses, the higher about 12 µM
Target sequence (P35462 whole entry, looked up): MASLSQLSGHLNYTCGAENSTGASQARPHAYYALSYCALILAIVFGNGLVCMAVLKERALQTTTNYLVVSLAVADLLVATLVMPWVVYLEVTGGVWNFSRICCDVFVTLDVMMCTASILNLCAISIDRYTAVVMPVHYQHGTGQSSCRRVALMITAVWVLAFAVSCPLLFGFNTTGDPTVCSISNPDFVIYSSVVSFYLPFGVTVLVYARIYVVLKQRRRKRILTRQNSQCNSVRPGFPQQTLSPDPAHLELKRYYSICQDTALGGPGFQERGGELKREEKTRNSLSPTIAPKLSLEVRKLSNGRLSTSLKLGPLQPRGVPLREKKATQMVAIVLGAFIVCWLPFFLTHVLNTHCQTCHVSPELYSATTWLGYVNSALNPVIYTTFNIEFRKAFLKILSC
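Agonist mode: compounds and dopamine controls were applied to plated cells for 90 min at 37 degrees C after an overnight attachment at 1500 cells/well. Luminescent read-out followed 30 - 60 minutes at room temperature with DiscoveRx detection reagent.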
DRD3 antagonist = qHTS of D3 Dopamine Receptor Antagonist: qHTS | D3R cells, DiscoveRx beta-arrestin luminescence, antagonist mode; active compounds read low | D(3) dopamine receptor (Homo sapiens), P35462 | max response, negative = inhibition, % | AID 652054, 2013 | 360,000 tested, 2.5% active; in the data active means max response below about -50%; inconclusive means no clear call, values can overlap the other calls; further: on the % scale 0 is the no-effect control and ±100 the full control effect; mostly tested at two doses, the higher about 12 µM
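Cells plated overnight at 1500 cells/well, then exposed to library compounds with dopamine controls for 90 minutes at 37 degrees C. DiscoveRx reagent added for 30–60 minutes at room temperature; luminescence read, quantitative HTS format.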
GLP1R ag = qHTS of GLP-1 Receptor Agonists; Potency, µM (top dose mostly 45.6 µM), without a hit: at the highest dose activation, usual class: activators; HEK293 GLP-1R CRE-luciferase, luminescence, 4-6 h; cells express a hypersensitive GLP-1R form; 380,000 tested, 0.007% active; AID 624172, 2012; further: potency means the concentration at half of the fitted maximal effect; % of control where 0% means no effect
PI5P4Ka inh = qHTS for Inhibitors of phosphatidylinositol 5-phosphate 4-kinase (PI5P4K) | Phosphatidylinositol 5-phosphate 4-kinase type-2 alpha (Homo sapiens), P48426 | PI5P4Kalpha enzyme, ADP-Glo luminescence, 60 min; active compounds read low | max response, % | 330,000 tested, 1.2% active; active means max response of -50% or lower; inconclusive means between -30% and -50%; inactive means -30% or higher; further: value at the top dose of about 77 µM; on the % scale 0 is the no-effect control and ±100 the full control effect
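Reactions run in 0.038 M HEPES pH 7.4, 0.28 mM EGTA, 0.1% CHAPS and 5% DMSO, with PI5P4Kalpha, substrate, compound and 5 microM ATP final, one hour at room temperature. Readout is ADP-Glo luminescence.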
* hit, by the source's call; & = joins results of further samples. Unless noted, the call rests on the fitted dose curve; in most records, active means well fitted curve in the direction sought with a large enough effect; inconclusive means small, poorly fitted or top-dose-only effect, or another doubt; inactive means no such curve, though single readings can be large; an effect the other way counts as inactive or inconclusive. An excerpt (hit frequency here may not be typical).

What do the screens show for `CC(=O)c1cn(S(=O)(=O)c2ccccc2)c2ccccc12`?
WRN inhibitor: 1%; DRD3 agonist: 5; DRD3 antagonist: 12; GLP1R ag: 13%; PI5P4Ka inh: -8

What do the screens show for `C#Cc1cccc(N2C(=O)C3C4C=CC(C3C2=O)C2C(=O)N(c3cccc(C#C)c3)C(=O)C42)c1` (centres undefined)?
WRN inhibitor: 9%; DRD3 agonist: 2; DRD3 antagonist: 8; GLP1R ag: -13%; PI5P4Ka inh: -6

What do the screens show for `O=c1c(Cl)c(O)ccn1C1OC(CO)C(O)C1O` (centres undefined)?
WRN inhibitor: 8%; DRD3 agonist: 7; DRD3 antagonist: 4; GLP1R ag: -2%; PI5P4Ka inh: -1

How did Cc1ccc(CNc2ccc3nnc(-c4ccccc4)n3n2)cc1 do in these assays?
WRN inhibitor: -2%; DRD3 agonist: 2; DRD3 antagonist: 6; GLP1R ag: 5%; PI5P4Ka inh: -2

What do the screens show for `CNc1nc(Cl)nc2c1ncn2-c1ccccc1`?
WRN inhibitor: -21%; DRD3 agonist: 1; DRD3 antagonist: -11; GLP1R ag: 3%; PI5P4Ka inh: 2

What do the screens show for `O=C1C2CCCN2C(=S)N1c1ccc(Cl)cc1` (centres undefined)?
WRN inhibitor: -14%; DRD3 agonist: 8; DRD3 antagonist: 7; GLP1R ag: 10%; PI5P4Ka inh: 0

What do the screens show for `COc1ccc(N2C(=O)C3CCCN3C2=S)cc1` (centres undefined)?
WRN inhibitor: -16%; DRD3 agonist: -8; DRD3 antagonist: -26; GLP1R ag: 9%; PI5P4Ka inh: 0

Results for O=C1NC[C@H](c2ccccc2)OC(=O)[C@@H](Cc2ccc(F)cc2)CC/C=C/C[C@@H]1CC(=O)N(CCO)Cc1ccccc1 ?
WRN inhibitor: -1%; DRD3 agonist: -27; DRD3 antagonist: -70*; GLP1R ag: -3%; PI5P4Ka inh: 6

Results for O=C(Cn1c(C(=O)c2ccccc2)nc2ccccc21)c1ccc(Cl)cc1 ?
WRN inhibitor: -9%; DRD3 agonist: 2; DRD3 antagonist: -23; GLP1R ag: -2%; PI5P4Ka inh: 10

How did COc1cccc(Nc2nc(NCC3CCCO3)c3ccccc3n2)c1 (centres undefined) do in these assays?
WRN inhibitor: -28%; DRD3 agonist: -8; DRD3 antagonist: -19; GLP1R ag: -6%; PI5P4Ka inh: -28

What do the screens show for `CN1/C(=C/c2cc[n+](C)c3ccccc23)C=Cc2ccccc21`?
WRN inhibitor: 28µM*; DRD3 agonist: -11; DRD3 antagonist: -18; GLP1R ag: 0%; PI5P4Ka inh: -17

Results for Cc1nc2sccn2c(=O)c1CCN1CCC(=C(c2ccc(F)cc2)c2ccc(F)cc2)CC1 ?
WRN inhibitor: 6%; DRD3 agonist: -88&-19; DRD3 antagonist: -93*; PI5P4Ka inh: inconclusive

What do the screens show for `CC(N)C(=O)NC(CO)C(O)C(N)C=O` (centres undefined)?
WRN inhibitor: 1%; DRD3 agonist: 4; DRD3 antagonist: -4; GLP1R ag: 1%; PI5P4Ka inh: 24

How did C=C(CN(C)C)C(=O)c1ccc2c(c1)OCO2 do in these assays?
WRN inhibitor: inconclusive; DRD3 agonist: -6; DRD3 antagonist: -54*; GLP1R ag: -11%; PI5P4Ka inh: 4

Results for c1ccc(CN2CCC3CC2c2cc(N4CCOCC4)ccc23)cc1 (centres undefined) ?
WRN inhibitor: 2%; DRD3 agonist: -35; DRD3 antagonist: -9; GLP1R ag: 7%; PI5P4Ka inh: -2

What do the screens show for `CC(C(=O)N1CCc2ccccc21)N1CCN(Cc2ccc(Cl)cc2)CC1` (centres undefined)?
WRN inhibitor: 5%; DRD3 agonist: -14; DRD3 antagonist: -25; GLP1R ag: 9%; PI5P4Ka inh: 3

By substructure: those above containing a halogen
What do the screens show for `O=c1c(Cl)c(O)ccn1C1OC(CO)C(O)C1O` (centres undefined)?
WRN inhibitor: 8%; DRD3 agonist: 7; DRD3 antagonist: 4; GLP1R ag: -2%; PI5P4Ka inh: -1

What do the screens show for `CNc1nc(Cl)nc2c1ncn2-c1ccccc1`?
WRN inhibitor: -21%; DRD3 agonist: 1; DRD3 antagonist: -11; GLP1R ag: 3%; PI5P4Ka inh: 2

What do the screens show for `O=C1C2CCCN2C(=S)N1c1ccc(Cl)cc1` (centres undefined)?
WRN inhibitor: -14%; DRD3 agonist: 8; DRD3 antagonist: 7; GLP1R ag: 10%; PI5P4Ka inh: 0

Results for O=C1NC[C@H](c2ccccc2)OC(=O)[C@@H](Cc2ccc(F)cc2)CC/C=C/C[C@@H]1CC(=O)N(CCO)Cc1ccccc1 ?
WRN inhibitor: -1%; DRD3 agonist: -27; DRD3 antagonist: -70*; GLP1R ag: -3%; PI5P4Ka inh: 6

Results for O=C(Cn1c(C(=O)c2ccccc2)nc2ccccc21)c1ccc(Cl)cc1 ?
WRN inhibitor: -9%; DRD3 agonist: 2; DRD3 antagonist: -23; GLP1R ag: -2%; PI5P4Ka inh: 10

Results for Cc1nc2sccn2c(=O)c1CCN1CCC(=C(c2ccc(F)cc2)c2ccc(F)cc2)CC1 ?
WRN inhibitor: 6%; DRD3 agonist: -88&-19; DRD3 antagonist: -93*; PI5P4Ka inh: inconclusive

What do the screens show for `CC(C(=O)N1CCc2ccccc21)N1CCN(Cc2ccc(Cl)cc2)CC1` (centres undefined)?
WRN inhibitor: 5%; DRD3 agonist: -14; DRD3 antagonist: -25; GLP1R ag: 9%; PI5P4Ka inh: 3
